# Assay outcomes as filed in PubChem BioAssay.
# Beta cell apopt – blocks beta cell apoptosis. protection from apoptosis, % (no concentration beside the values). INS-1E cytokine-induced death, ATP luminescence, 48 h; percent of positive-control rescue, neutral wells zero. 300,000 tested, 0.8% active;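 active = all replicates at 75% or more, or half of them and the mean; inconclusive = half reach 75% but not the mean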;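 also: 0% = cytokine-treated negative control wells and 100% = positive control rescue; higher means more ATP so stronger rescue from cytokine killing; wells of about 40 µL received 100 nL stock; the first replicate is given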
# AF4-AF9 inh – MLL-AF4/AF9 protein interaction inhibition; P42568; AlphaScreen, biotin-AF4 peptide binding to FLAG-AF9; inhibition, % at 10 µM; 350,000 tested, 0.47% active;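 active = every replicate reaching a set inhibition limit, whatever the replicate mean, cut at about 25% in these data; inconclusive = mean inhibition reaches that limit but some replicates miss it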;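 also: 0% = plate neutral control median and 100% = total signal loss; the record names both 10 and 1 µM as test concentration; the first replicate is given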
# T cruzi inh – T. cruzi replication inhibition; T. cruzi beta-gal in NIH3T3, luminescence, 90 h; inhibition, % (no concentration beside the values); 300,000 tested, 1.4% active;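 active = mean inhibition across valid replicates above about 55%, limit read from the data; inconclusive = mean below that limit but half or more replicates reach it; inactive = mean below it, under half of replicates reach it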;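 also: signal also drops with host cell toxicity which is not excluded here; 0% = plate median of DMSO wells and 100% = zero luminescence signal; higher percent means less beta-gal luminescence so fewer parasites; stock transfer was 50 nL into about 50 µL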
# LANA-H2A inh – blocks KSHV LANA binding to histone H2A/H2B; AID 2629; cell-free LANA-H2A/H2B peptide, fluorescence polarization; Q9QR71; 320,000 tested, 0.6% active; inhibition, % (test concentration not listed); in the data active = inhibition mostly above about 10%, no sharp cut-off; inactive = mostly below about 6.7%;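 also: stock transfer was 7.5 nL into about 10 µL; 0% = median of vehicle wells and 100% = median of positive control wells; one replicate is shown; the record names a cut of 25% in any replicate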
# Target sequence (Q9QR71 whole entry, looked up): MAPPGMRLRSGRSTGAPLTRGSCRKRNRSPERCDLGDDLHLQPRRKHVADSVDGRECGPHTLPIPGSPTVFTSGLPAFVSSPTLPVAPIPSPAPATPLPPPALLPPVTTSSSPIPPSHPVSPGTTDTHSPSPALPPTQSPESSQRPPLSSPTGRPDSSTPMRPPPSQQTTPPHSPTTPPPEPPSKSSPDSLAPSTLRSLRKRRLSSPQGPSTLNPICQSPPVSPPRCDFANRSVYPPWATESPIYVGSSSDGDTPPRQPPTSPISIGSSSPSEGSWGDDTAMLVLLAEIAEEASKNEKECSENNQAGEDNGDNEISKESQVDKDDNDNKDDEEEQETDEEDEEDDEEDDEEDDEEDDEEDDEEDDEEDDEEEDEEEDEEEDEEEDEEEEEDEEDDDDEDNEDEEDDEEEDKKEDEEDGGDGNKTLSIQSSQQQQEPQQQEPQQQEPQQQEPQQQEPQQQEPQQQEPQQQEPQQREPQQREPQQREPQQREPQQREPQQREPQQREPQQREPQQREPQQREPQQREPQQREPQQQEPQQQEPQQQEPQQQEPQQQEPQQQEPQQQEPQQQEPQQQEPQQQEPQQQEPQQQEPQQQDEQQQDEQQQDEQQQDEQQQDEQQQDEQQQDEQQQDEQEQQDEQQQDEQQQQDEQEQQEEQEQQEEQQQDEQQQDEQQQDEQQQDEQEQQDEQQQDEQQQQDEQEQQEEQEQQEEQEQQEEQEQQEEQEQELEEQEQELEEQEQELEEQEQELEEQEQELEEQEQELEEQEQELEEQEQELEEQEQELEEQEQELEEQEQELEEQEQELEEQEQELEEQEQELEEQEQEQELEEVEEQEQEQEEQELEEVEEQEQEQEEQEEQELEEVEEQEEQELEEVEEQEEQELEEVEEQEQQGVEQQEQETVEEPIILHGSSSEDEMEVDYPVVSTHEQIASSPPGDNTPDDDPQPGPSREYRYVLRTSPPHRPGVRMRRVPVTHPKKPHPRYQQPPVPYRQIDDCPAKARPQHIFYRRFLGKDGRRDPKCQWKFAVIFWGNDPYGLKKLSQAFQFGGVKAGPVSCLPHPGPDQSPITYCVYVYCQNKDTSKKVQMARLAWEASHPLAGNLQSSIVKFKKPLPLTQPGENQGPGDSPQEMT
# Calb FLC – affects C. albicans growth with fluconazole; C. albicans CaCi-2 (fluconazole-resistant clinical isolate) + fluconazole, Alamar Blue growth, 48 h; growth inhibition, % (no concentration beside the values); 300,000 tested, 0.57% active;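 active = most replicates above 75%; inconclusive = exactly half above 75%; inactive = most below 75%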;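 also: all wells also contain fluconazole at 8 µg/ml as a sub-toxic cotreatment; 0% = median of DMSO wells and 100% = median of geldanamycin control wells; wells of about 8 µL received 7.5 nL stock; the first replicate is given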
# Vif A3G – inhibitors of Vif binding to APOBEC3G peptide, primary screen, biochemical, TR-FRET, GST-Vif 1-94, biotin-A3G peptide, dose response retest (AID 1117319); TR-FRET GST-Vif / biotin-A3G peptide binding; higher % means a stronger effect; test concentration not given here; strong numbers were not always called active; one-dose inhibition, %; IC50 in µM for titrated hits; 260,000 tested, 0.57% active;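 active = above the screen mean plus three standard deviations and confirmed in dose response; inconclusive = results disagree or hit not tested in dose response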;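 also: Vif residues 1-94 fused to GST binding biotinylated APOBEC3G peptide 110-148; 0% = full assay without inhibitor and 100% = GST in place of GST-Vif; retest series ran down from 100 µM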
# A1 inh – inhibitors of the anti-apoptotic protein A1, read as caspase activation; MEF A1-2A-BIM cells, Caspase-Glo 3/7 luminescence, 3 h; percent of clofoctol response, vehicle zero; caspase activation, % (concentration not given with the values); 330,000 tested, 0.066% active; AID 2462;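 active = over half of replicate activation scores above 10%, or exactly half above 10 with the replicate mean above 10; inconclusive = replicate mean below 10 yet half the replicates above 10; inactive = over half of replicates below 10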;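 also: wells of about 30 µL received 50 nL stock; many hits fall short of the cut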
# RanGTP-Imp inh – disruptors of Ran-importin-beta complex formation – biochemical, FRET, CFP-Ran, YFP-importin-beta, homogeneous, primary screen; cell-free CFP-Ran/YFP-importin-beta FRET ratio; inhibition, % (concentration not given with the values); 300,000 tested, 1.1% active; AID 2216;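 active = most replicates above 15%; inconclusive = exactly half above 15%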;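 also: 0% = DMSO wells and 100% = Ran loaded with GDP instead of GTP; wells of about 40 µL received 100 nL stock; the first replicate is given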
# An asterisk follows results filed as active; ? = inconclusive; . = no result given; & = joins results of further samples.
SMILES,Beta cell apopt,AF4-AF9 inh,T cruzi inh,LANA-H2A inh,Calb FLC,Vif A3G,A1 inh,RanGTP-Imp inh
CCOc1ccccc1C(=O)NCCCn1ccnc1,3,.,-3,-0.3,2,-10%,0.3,3.3
O=c1c2cnn(-c3ccc(F)cc3)c2ncn1Cc1ccccn1,.,.,-1,.,4,3%,.,-1.6
COc1ccccc1CNC(=O)C1CCN(S(=O)(=O)c2ccc(N3CCCC3=O)cc2)CC1,-16,-0.2,-5,2.1,11,-5%,0.0,2.8
O=C(O)CN(c1cccc(C(F)(F)F)c1)S(=O)(=O)c1ccccc1,-1,-3.9,-17,-1.3,1,3%,0.8,2.8
COc1ccc(NC(=O)NC(C)c2ccc3c(c2)OCO3)cc1OC (stereo not given),-3,0.1,-21,1.2,-3,5%,1.0,-0.2
COc1cc(OC)cc(-c2sc3ccc(OC)cc3c2C#CCCO)c1,-3,4.3,.,2.0,.,.,-0.6,.
CCN=C(NC#N)SCc1c(F)cccc1Cl,-5,-2.3,-13,-4.0,11,0%,0.1,-1.2
Cc1cc(=O)c2cc3nc(-c4cccnc4)oc3c(Br)c2o1,-7,.,-4,-3.9,38,2%,-2.7,5.8
Oc1c(C=NCc2ccncc2)sc2ccccc12,5,.,-14,-6.8,9,32%,-1.1,13
CNC(=S)NC(CC(=O)OC)c1ccc2c(c1)OCO2 (stereo not given),-3,-3.6,-9,-0.7,-1,.,-0.4,-9.1
Cc1ccc(NC(=O)CN(C)C(=O)C(C)OC(=O)CNC(=O)c2ccc(Cl)c([N+](=O)[O-])c2)cc1 (stereo not given),-4,1.0,-17,-13,-5,-5%,0.3,-2.0
COc1ccc(C(=O)COC(=O)C(C)N2C(=O)C3C4CCC(C4)C3C2=O)cc1 (stereo not given),-3,-3.5,-2,-0.2,-6,-10%,0.4,5.4
CC(=O)OCCCNc1cc(SCc2ccco2)c2nonc2c1[N+](=O)[O-],4,.,14,16,6,?,0.1,6.1
CCn1c(=N)n(CC(=O)c2ccc(OC)cc2)c2ccccc21,-1,.,.,-4.6,1,>100µM*,-0.1,2.4
COc1cc(/C=N/NC(=O)c2cccc([N+](=O)[O-])c2)cc(OC)c1O,-1,-0.2,-8,3.6,?,.,0.0,-0.7
COc1cccc(C2C(=O)N(C3CCCCC3)CC(=O)N2Cc2ccc(F)cc2)c1 (stereo not given),5,5.6,-20,1.4,-31,1%,0.8,-3.6
COc1ccc(C(=O)NCCc2ccccc2F)cc1OC1CCN(C(C)=O)CC1,-6,-2.8,3,-1.9,3,5%,0.6,-0.8
CCC(C)NC(=O)[C@@H]1CCCN1C(=O)C1CCN(S(=O)(=O)c2ccc(C)cc2)CC1 (stereo not given in full),-3,-3.1,18,-1.7,-14,.,1.2,5.8
Cc1ccc(C(=O)OCC(=O)NC2CCCCC2)o1,-2,-4.6,-2,3.4,-3,.,-0.3,0.3
Cc1ccc2c(c1)NC(=O)CC(c1ccccc1)=N2,-6,.,-11,1.4,-1,-13%,0.0,3.4
COc1ccc(Cn2c(C)nnc2-c2cnn(C)c2N)cc1OC,-4,-0.4,-6,-1.7,1,23%,0.2,0.3
Cc1ccc(NC(=O)N2CCCC2C(=O)NCCC2=CCCCC2)cc1 (stereo not given),3,.,1,5.0,-12,3%,0.1,-1.5
Cc1cccc(C)c1NC(=O)CNC(=O)c1cn(-c2ccccc2)nc1-c1ccccc1,.,1.6,-2,-6.6,3,8%,-0.3,-0.5
COc1cc(NS(=O)(=O)c2ccc(NC(=S)NC(=O)C(C)(C)C)cc2)nc(OC)n1,-5,-61,-6,2.8,13,3%,0.4,-3.3
COc1ccccc1N1CCN(C/C(O)=C(\C#N)c2nc(-c3ccccc3)cs2)CC1,-1,.,-4,-4.6,2,?,0.1,3.7
COCC(C)n1c(-c2ccc3c(c2)NC(=O)CO3)csc1=Nc1ccc(OC(F)F)cc1 (stereo not given),23,1.6,16,-1.8,-11,1%&1%,0.7,-0.6
Cn1cnnc1SCCOc1ccc(Cl)cc1,1,4.3,-19,-0.2,-42,-5%,-0.3,0.9
NNC(=O)c1ccc(-c2cccc([N+](=O)[O-])c2)o1,2,-2.7,6,-2.2,7,-7%,0.3,0.0
CCOc1ccc(S(=O)(=O)N2CCCC(C(=O)Nc3cc(C)cc(C)c3)C2)cc1 (stereo not given),2,-2.8,23,1.0,1,.,0.4,2.2
COc1cccc(C(=O)N(Cc2cc3cc(C)ccc3[nH]c2=O)CC2CCCO2)c1 (stereo not given),1,.,11,1.0,7,-5%,-0.1,0.9
COc1ccc(NC(=O)CN(C)C(=O)C23CC4CC(CC(C4)C2)C3)cc1,-2,-1.5,0,-1.1,-11,.,0.0,-2.8
Cc1noc(C)c1C(=O)Nc1ccc2ccccc2c1,-2,-2.1,0,0.3,-14,.,-1.7,-0.8
NC(=O)c1cc2ccccc2o/c1=N\NC(=O)c1ccc(F)cc1,2,-2.7,6,-4.7,-7,-8%,-1.6,1.0
NC(=NC(=O)c1ccccc1)N1N=CCC1c1ccccc1 (stereo not given),-8,-2.5,4,-3.0,-4,16%,0.8,2.6
CCCNC(=O)c1ccc(CN2CCOCC2)cc1,1,.,-11,-1.7,-1,?,-0.7,-1.0
CC1=NOC(=O)/C1=C\c1ccc2c(c1)OCO2,-7,-1.5,-10,-0.1,.,.,0.2,1.9
COc1ccc(-c2csc(NC(=O)c3cc(-c4cccs4)nc4ccccc34)n2)c(OC)c1,-11,.,5,-1.5,8,.,-0.4,0.3
CCc1noc(C)c1C(=O)N1CCN(S(=O)(=O)c2ccc(Cl)cc2)CC1,4,0.7,.,-3.3,.,-13%,0.8,.
O=C(CN1C(=O)c2ccccc2S1(=O)=O)c1ccc(O)c(O)c1,2,-1.7,-1,5.4,-4,4%,-0.6,0.3
COc1cc(S(=O)(=O)Nc2cccc(C)c2)ccc1N=Cc1c(C)[nH]n(-c2ccccc2)c1=O,3,.,-10,1.3,-3,8%,0.9,-0.6
CCC(C)c1ccccc1N1CC(C(=O)N(C)CC(=O)Nc2cccc(F)c2)CC1=O (stereo not given),-2,2.7,-9,11,3,-4%,0.1,3.7
CCOc1cc(C(=O)N/N=C\c2cn(CC)nc2C)cc(OCC)c1OCC,0,.,-43,-0.2,17,2%,0.7,4.1
Cc1ccc(C(=O)N/C(=C\c2cccs2)C(=O)NCCCn2ccnc2)cc1C,2,.,-2,-10,-8,7%,0.2,-0.4
CC(=O)C1=C(C)NC(SCC(=O)c2ccc(Cl)c(Cl)c2)=C(C#N)C1c1ccco1 (stereo not given),100*,9.4,34,-4.7,7,0%,-0.8,-25
Cc1cc(C(=O)NNC(=O)COc2c(C)cc(Br)cc2C)n[nH]1,-7,-2.4,-18,-2.5,-20,.,-1.1,4.3

# Single entries from above.
# Result for `COc1ccc(NC(=O)CN(C)C(=O)C23CC4CC(CC(C4)C2)C3)cc1` under A1 inh: 0.0
# Result for `CC1=NOC(=O)/C1=C\c1ccc2c(c1)OCO2` under LANA-H2A inh: -0.1

# (more compounds)
SMILES,Beta cell apopt,AF4-AF9 inh,T cruzi inh,LANA-H2A inh,Calb FLC,Vif A3G,A1 inh,RanGTP-Imp inh
Cn1c(=O)c2[nH]c(=O)cnc2n(C)c1=S,-7,-5.8,-6,0.1,1,.,1.0,2.0
CC(=O)N1CCN(c2ccc(NC(=O)COc3ccc(Cl)cc3Cl)cc2)CC1,0,.,6,3.8,16,69%,-0.5,-2.2
CC(=O)Nc1nc2c(F)cccc2s1,-1,4.6,3,6.6,-10,.,-1.0,-0.6
Cc1cc(NC(=O)c2ccccc2F)n(-c2nc3ccccc3[nH]2)n1,28,.,?,1.2,3,78%,-1.4,-0.7
COc1ccccc1NC(=S)N(CCc1nc2cc(C)c(C)cc2[nH]1)Cc1cccnc1,-5,5.8,48,0.2,6,-5%,0.1,0.5
Cc1c(C)[n+](=O)c2c(n1[O-])CCC2,-5,.,4,-1.4,20,?,0.0,1.8
Cc1ccc(S(=O)(=O)N2CCN(C(=O)N3CCOCC3)C2c2ccc(N(C)C)cc2)cc1 (stereo not given),-6,.,-9,5.0,-1,-4%&-7%,0.3,2.8
COc1cccc(N2CCN(C(=O)CC(NC(=O)c3ccccc3)c3ccccc3)CC2)c1 (stereo not given),2,6.8,.,-14,.,.,0.5,.
C/C(=N\Nc1nc(N)cc(Cl)n1)c1ccc(F)cc1,-18,2.0,-9,-6.9,8,0%,0.2,-0.5
Cc1nc(-c2ccccc2)sc1-c1nnc(C2CC2)o1,.,5.1,.,5.7,17,13%,-1.5,-1.4
COC(=O)C1=C(C)NC2=C(C(=O)CCC2)C1c1cccs1 (stereo not given),.,.,8,.,5,0%,.,-4.6
O=C(NNC(=O)c1cccnc1)Nc1ccccc1,-2,.,-14,-5.4,4,-1%,-0.2,-0.6
CC(C)c1ccc(NS(=O)(=O)c2cccc3cccnc23)cc1,-15,-5.0,1,-0.2,-8,-9%,-0.5,-0.5
Cc1c(CN2CCC(CO)(CCOc3ccccc3)CC2)c(=O)n(-c2ccccc2)n1C,-1,-0.4,-4,0.8,19,13%,0.1,0.7
CC(C)(CC(=O)O)CC(=O)Nc1ccc(Oc2ccc(C(C)(C)C)cc2)nc1,.,-2.1,-3,1.8,0,4%,-0.6,0.6
Cc1ccccc1C(=O)NC1CCN(CC(=O)Nc2ccccc2)CC1,.,-0.2,6,-4.6,4,-5%,0.5,-1.4
Cc1cccc(NC(=S)N2CCCC(c3nc4ccccc4[nH]3)C2)c1 (stereo not given),2,-1.4,-3,0.8,-3,.,0.3,?
CCC(CC)C(=O)NCc1ccc(Cl)cc1,-7,1.0,-4,-6.2,-1,6%,-1.1,0.5
CC(=O)c1ccc(N2CCN(C(=O)c3ccc4c(=O)n(-c5ccccc5)c(=O)[nH]c4c3)CC2)cc1,-3,.,1,0.0,-11,?,0.2,2.1
COC(=O)c1ccc(CN2CCC(n3nccc3NC(=O)C3CC3)CC2)cc1,2,-1.4,11,-0.8,2,.,0.6,-0.3
O=C(CSc1nc2nn(-c3ccccc3)c(=O)c-2c2n1CCCCC2)NCCCc1ccccc1,-4,0.9,42,3.9,23,27%,0.2,1.4
O=C(N/N=C/c1ccco1)c1cc(Br)ccc1OCc1ccccc1,4,-1.1,38,-3.3,31,.,-1.4,0.1
Cc1cccc(NC(=O)CSc2nc(C)c(CC(=O)c3ccc(Br)cc3)c(C)c2C#N)c1C,?,.,8,-1.4,-2,4%,3.3,6.1
Cc1ccc(CN2C(=O)CC(Nc3ccc(N4CCOCC4)cc3)C2=O)cc1 (stereo not given),0,8.2,2,0.7,-19,5%,-0.7,0.7
CC(C)(C)C(=O)NC(=S)Nc1ccccn1,3,-8.4,-2,1.1,-5,.,-0.2,0.2
O=Cc1ccc(OCC(=O)Nc2ccccc2-c2ccccc2)cc1,0,-0.9,-3,-1.7,2,-10%,-0.1,5.2
CC(/C=N/n1c(-c2ccccc2)n[nH]c1=S)=C\c1ccco1,1,.,-6,0.2,33,29%,-0.3,1.1
COc1ccc(CCC(=O)NCc2ccccc2Cl)cc1OC,-3,-1.8,0,2.0,4,-3%,0.9,-4.3
